Sa RN4220 lethal – S. aureus RN4220 growth inhibition; OD600, 16 h; inhibition, % (no concentration beside the values); actives 0.33% (n = 330,000);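 active = z-score of -3 or lower and OD600 up to 0.18 on both plates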;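 also: plate controls were untreated cells for no effect and reference antibiotic for full effect; stock transfer was 100 nL into about 80 µL; one replicate is shown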
PrP 5UTR inh – inhibition of PrP 5' UTR reporter expression; inhibition, % (concentration not given with the values); actives 0.35% (n = 340,000); AID 488862; cell-based PrP 5' UTR mRNA reporter, plate reader;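 active = every replicate at 50% or more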;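 also: 0 = median of the neutral control wells; tested in H4 reporter cells; numbers are from one replicate; inactives centre near -14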
BJeLR viability – kills HRASV12-expressing BJeLR cells. inhibition, % (concentration not given with the values). AID 1554. BJeLR (HRASV12) viability, CellTiter-Glo ATP luminescence, 48 h; reference of the scale not given here. actives 0.17% (n = 300,000);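 active = replicate mean above 50%; inconclusive = above 50% but judged a plate artefact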;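 also: 50 nL library stock added to about 25 µL; numbers are from one replicate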
Mtb hypoxia rep – reduces hypoxia-regulated biosensor signal in M. tuberculosis; M. tuberculosis hypoxia-regulated fluorescent reporter, fluorescence; fluorescence inhibition, % (test concentration not listed); actives 0.1% (n = 300,000); AID 1159583;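 active = 35 to 45% if threefold the growth effect, above 45% if 1.5-fold the growth effect; inactive = the rest, general growth blockers included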;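 also: wells of about 50 µL received 100 nL stock; 0% = vehicle wells and 100% = reference inhibitor wells; whole bacteria with a GFP reporter of the hypoxia response; strong numbers were not always called active; many hits fall short of the cut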
Bead autofluor – compound fluorescence in toxin protease inhibitor counterscreen; actives 3.1% (n = 360,000); compound autofluorescence counterscreen, microsphere flow cytometry; hits give high values; AID 624483; fluorescence intensity (concentration not given with the values);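 active = at least 3 SD above the mean of all compounds, about 16000 in these data; inconclusive = too few beads counted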;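 also: 100 nL of 1 mM stock went into each well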
ugtP null kill – compounds lethal to S. aureus RN4220 ugtP deletion mutant; OD600 growth, 16 h; some inactives read as strong as hits; actives 0.54% (n = 330,000); growth inhibition, % (no concentration beside the values);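 active = z-score under -3 and OD600 up to 0.15 on both plates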;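 also: plate controls were untreated wells for no effect and antibiotic for full effect; wells of about 80 µL received 100 nL stock; the first replicate is given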
Mtb hypoxia rep growth – further read-out of Mtb hypoxia rep, marked with its call; growth inhibition, %; measured here: M. tuberculosis growth (absorbance);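 0% = vehicle and 100% = reference antibiotic; read after six days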
* hit, by the source's call; ? = inconclusive; . = not tested or not shown.

#	SMILES	Sa RN4220 lethal	PrP 5UTR inh	BJeLR viability	Mtb hypoxia rep
1	Cc1ccc(C)c(N2CCN(C(=O)CCc3nc(-c4cccc(F)c4)no3)CC2)c1	2.4	-20	.	-1
2	COc1ccc(-c2nn(-c3ccccc3)cc2/C=N/NC(=O)c2ccc(Br)o2)cc1	.	-31	-13	.
3	O=C(c1cccc(S(=O)(=O)Nc2ccccc2Cl)c1)N1CCCCCC1	.	-22	2	.
4	Cc1cc(C)n(C2CCCCC2OC(=O)c2ccccc2)n1 (stereo unspecified)	1.0	-13	-5	.
5	COc1ccc(-c2noc(N3CCC(C(=O)NCc4ccccc4Cl)CC3)n2)cc1	-3.8	-3	13	-9
6	Cc1cccc(NC(=O)NCc2ccc3[nH]c(C)cc3c2)c1	2.5	-3	1	8
7	CCCCCCSc1cccc(-c2nc3cc(C)ccn3c2NC2CCCCC2)c1	.	7	0	.
8	N#Cc1ccc(OCC(=O)NN2Cc3ccccc3C2=N)cc1	6.1	-16	3	1
9	Cc1cc(C)c(CN2CCC(n3nccc3NC(=O)c3ccccc3Cl)CC2)cc1C	2.6	-19	7	-2
10	Cc1ccsc1C(=O)Nc1cccc(-n2cnnn2)c1	-0.5	-19	-3	8
11	NS(=O)(=O)c1ccc(NC(=O)COC(=O)/C(=C/c2cccs2)c2cccs2)cc1	12	-9	-2	-3
12	COc1cc2c(cc1OC)CN(CC(=O)Nc1ccc(F)cc1)C(C(=O)O)C2 (stereo unspecified)	4.7	-14	-5	-2
13	Cc1ccccc1C=CC(=O)c1ccc([N+](=O)[O-])o1	33	.	.	21
14	CCC(C)NC(=O)c1ccccc1NC(=O)c1ccc(CSc2ccccc2)cc1 (stereo unspecified)	-4.7	-9	-7	-5
15	CC(C)C(c1nnnn1C(C)(C)C)N1CCN(c2cccc(Cl)c2)CC1 (stereo unspecified)	8.1	-7	.	.

#	Mtb hypoxia rep growth	Bead autofluor	ugtP null kill
1	3	4014	-2
2	.	2356	.
3	.	?	.
4	.	4987	1
5	4	5418	-4
6	6	2613	5
7	.	3952	.
8	-4	4328	6
9	-12	5652	12
10	5	5633	0
11	9	4580	7
12	8	3392	5
13	12	.	101*
14	12	2438	-34
15	.	4275	15

More entries follow.
#	SMILES	Sa RN4220 lethal	PrP 5UTR inh	BJeLR viability	Mtb hypoxia rep
16	COc1cccc(NC2c3ccccc3C(=O)N2Cc2ccco2)c1 (stereo unspecified)	-1.1	-16	2	3
17	CCOC(=O)NC(=S)Nc1ccc(C(C)(C)C)cc1Br	-3.4	-26	1	15
18	COC(=O)c1ccccc1NC(=O)C1CCCN(S(=O)(=O)c2ccc(F)cc2)C1 (stereo unspecified)	0.6	0	9	.
19	c1ccc(Sc2ncnc3ccccc23)cc1	.	-30	-6	.
20	O=C1C(=C2SCCCS2)CC/C1=C\c1ccc(F)cc1	-9.2	84*	6	24
21	O=c1[nH]c(/C=C\c2ccccc2F)nc(O)c1[N+](=O)[O-]	3.2	2	-14	1
22	c1ccc(-c2cn3nc(-c4ccccc4)sc3n2)cc1	5.9	37	10	14
23	CCOc1ccc(C2CC(c3ccccc3C)n3nc(N)nc3N2)cc1 (stereo unspecified)	-0.7	5	-4	.
24	COc1ccccc1N1CCN(C2=NS(=O)(=O)c3ccccc32)CC1	-0.1	10	2	1
25	C/C(Cl)=C\Cn1c(Nc2cccc(C)c2)nc2c1c(=O)n(C)c(=O)n2C	4.1	-8	13	0
26	CN(Cc1ccco1)S(=O)(=O)c1ccc(CN2C(=O)c3cccnc3C2=O)s1	2.0	-26	-2	12
27	CCOc1ccc(NC(=O)C2CCN(S(C)(=O)=O)CC2)cc1	-1.9	-1	-14	-1
28	O=C1C(Cl)=C(N2CCOCC2)C(=O)N1c1cccc(Cl)c1	3.3	-9	2	0
29	CCC(C)n1[nH]c(=O)c2c(C)cc(C)nc21 (stereo unspecified)	4.4	-15	6	.
30	Cc1c(-n2cc(C(=O)c3cc(Br)ccc3O)cc(C#N)c2=O)c(=O)n(-c2ccccc2)n1C	4.5	-19	2	3

#	Mtb hypoxia rep growth	Bead autofluor	ugtP null kill
16	7	6105	-1
17	12	4475	-7
18	.	4741	1
19	.	3324	.
20	20	2295	2
21	8	2984	7
22	14	3213	-1
23	.	6005	0
24	-6	6893	1
25	7	10707	-9
26	-1	5953	0
27	2	3121	-2
28	4	7358	-3
29	.	4808	1
30	3	6585	21

(continued)
#	SMILES	Sa RN4220 lethal	PrP 5UTR inh	BJeLR viability	Mtb hypoxia rep
31	CSc1nc2ccccc2c(=O)n1C1CCOC(C)(C)C1 (stereo unspecified)	6.1	-23	-8	8
32	Nc1nc(-c2ccco2)nn1C(=O)CCc1ccccc1	1.3	-11	9	.
33	O=C(NCCSCc1ccco1)Nc1ccc(Cl)cc1	-1.8	-56	12	.
34	CCOC(=O)c1[nH]c(C)c(/C(O)=C2\C(=O)C(=O)N(CCCN3CCOCC3)C2c2cccnc2)c1C (stereo unspecified)	5.1	-10	.	10
35	O=C(COC(=O)CSCc1ccccc1)NCc1ccccc1	5.9	-20	11	-1
36	Cc1cc(C(=O)CN2C(=O)NC3(CCCc4ccccc43)C2=O)c(C)n1Cc1ccccc1 (stereo unspecified)	-13	-24	-4	13
37	O=C(NCC1CCCO1)C(=Cc1ccc(Cl)cc1)NC(=O)c1ccccc1 (stereo unspecified)	7.4	.	.	8
38	COc1ccc(C(=O)C2CCCN(C(=O)c3c4c(nn3C)CCCC4)C2)cc1F (stereo unspecified)	2.2	-23	6	15
39	O=C(CSc1nnnn1-c1ccc2c(c1)OCCO2)Nc1nc2c(s1)CCCC2	6.1	-15	-11	11
40	CN1C(=O)C2(N=c3ccccc3=N2)c2ccccc21	.	-13	-3	.
41	CC1(C)OC(c2ccccc2)=C/C(=C/C=C2C(=O)NC(=S)NC2=O)O1	1.3	.	-4	-19
42	Nc1c(C(=O)NN=Cc2ccc(Cl)cc2)cnn1-c1ccccc1	0.2	.	.	-3
43	CC(C)Nc1ccccc1	3.8	-13	.	5
44	CCc1cccc2c(C(=O)CSc3nnc(-c4ccncc4)n3C)c[nH]c12	-1.1	-34	-10	8
45	O=C(COC(=O)CCCN1C(=O)c2cccc3cccc(c23)C1=O)Nc1cccc(C(F)(F)F)c1	.	-20	4	.

#	Mtb hypoxia rep growth	Bead autofluor	ugtP null kill
31	-1	4273	8
32	.	4918	1
33	.	3927	-5
34	3	10986	-7
35	4	4201	2
36	13	3524	-12
37	1	.	5
38	-1	4269	2
39	6	7264	-1
40	.	2637	.
41	-5	.	4
42	-4	.	-2
43	1	5802	9
44	6	2704	3
45	.	7286	.

In a second layout: results already given
33) O=C(NCCSCc1ccco1)Nc1ccc(Cl)cc1
  Sa RN4220 lethal: -1.8
  PrP 5UTR inh: -56
  BJeLR viability: 12
  Mtb hypoxia rep: .
  Mtb hypoxia rep growth: .
  Bead autofluor: 3927
  ugtP null kill: -5

34) CCOC(=O)c1[nH]c(C)c(/C(O)=C2\C(=O)C(=O)N(CCCN3CCOCC3)C2c2cccnc2)c1C (stereo unspecified)
  Sa RN4220 lethal: 5.1
  PrP 5UTR inh: -10
  BJeLR viability: .
  Mtb hypoxia rep: 10
  Mtb hypoxia rep growth: 3
  Bead autofluor: 10986
  ugtP null kill: -7

Laid out differently: entries from further up
41: CC1(C)OC(c2ccccc2)=C/C(=C/C=C2C(=O)NC(=S)NC2=O)O1
  Sa RN4220 lethal: 1.3
  PrP 5UTR inh: .
  BJeLR viability: -4
  Mtb hypoxia rep: -19
  Mtb hypoxia rep growth: -5
  Bead autofluor: .
  ugtP null kill: 4

42: Nc1c(C(=O)NN=Cc2ccc(Cl)cc2)cnn1-c1ccccc1
  Sa RN4220 lethal: 0.2
  PrP 5UTR inh: .
  BJeLR viability: .
  Mtb hypoxia rep: -3
  Mtb hypoxia rep growth: -4
  Bead autofluor: .
  ugtP null kill: -2

43: CC(C)Nc1ccccc1
  Sa RN4220 lethal: 3.8
  PrP 5UTR inh: -13
  BJeLR viability: .
  Mtb hypoxia rep: 5
  Mtb hypoxia rep growth: 1
  Bead autofluor: 5802
  ugtP null kill: 9

Other structures follow.
#	SMILES	Sa RN4220 lethal	PrP 5UTR inh	BJeLR viability	Mtb hypoxia rep
46	COC(=O)c1sc(NC(=O)c2ccc(Cn3cc(Cl)cn3)o2)c(C#N)c1C	37	-13	2	.
47	CN(C)S(=O)(=O)n1cc(/C=C(\NC(=O)c2ccccc2F)C(=O)N2CCCC2)c2ccccc21	1.0	-2	-7	-5
48	Oc1cccc(/C=N/N2CCN(c3ccccn3)CC2)c1	.	-15	-1	.
49	C=CCn1c(SCC(=O)Nc2ccccc2C)nc2sc(C)c(C)c2c1=O	-4.0	-4	3	.
50	CCOc1ccccc1NC(=O)COC(=O)C1CC1	2.9	-3	4	11
51	COc1ccc(-c2nc(-c3cccc([N+](=O)[O-])c3O)cc(=O)o2)cc1OC	4.4	-32	-3	11
52	CCOC(=O)C(/C=C(\C#N)C(=O)OCC)=C(/N)N1CCN(c2ccc(OC)cc2)CC1	15	-5	2	-10
53	CN(C)S(=O)(=O)c1ccc(C(=O)Nc2ccc(CN3CCCC3)cc2)cc1	-9.8	-2	2	11
54	CCCCCCNC(=O)NC(C(=O)NCCCC1CN2C(=NCC2Cc2ccccc2)N1CCc1cccc(OC)c1)C(C)C (stereo unspecified)	-6.1	.	.	.
55	CC(C)NC(=O)CC(=O)N/N=C/c1ccc(Br)cc1	.	-2	1	.
56	COc1cc2cc(CCOC(=O)c3ccc(F)cc3)oc(=O)c2cc1OC	7.8	-14	.	5
57	CC(=C1C(=O)c2ccccc2C1=O)N1CCC(C(N)=O)(N2CCCCC2)CC1	7.9	-3	-2	0
58	Cc1nnc(C)c2c(C)n(-c3ccccc3)c(C)c12	-0.2	-9	20	6
59	Cc1c2c(nc3c(C(=O)NC4CCCC4)cnn13)CCCC2	6.6	1	0	9
60	CN1CCC(N(C)CC(=O)Nc2ccccc2N2CCOCC2)CC1	-3.3	3	-3	12

#	Mtb hypoxia rep growth	Bead autofluor	ugtP null kill
46	.	2360	36
47	-3	5569	4
48	.	4561	.
49	.	3153	-6
50	0	3414	2
51	13	2148	1
52	16	2518	1
53	8	.	-1
54	.	.	-5
55	.	7500	.
56	-3	3988	15
57	1	23736*	3
58	-10	3244	7
59	10	16888*	3
60	1	3905	-2

The list continues.
#	SMILES	Sa RN4220 lethal	PrP 5UTR inh	BJeLR viability	Mtb hypoxia rep
61	CC(C)(C)[C@@H]1CCC(=O)N(CC[C@H](N=[N+]=[N-])c2ccccc2)CC1	.	-15	-9	.
62	CCOc1ccc(S(=O)(=O)NCc2ccccc2Cl)cc1C(N)=O	12	-6	1	0
63	CC[n+]1c(C)n(-c2ccccc2)c2ccc(NC(C)=O)cc21	2.1	-45	5	2
64	CC(=O)Nc1cc(C(=O)O)ccc1S(=O)(=O)c1ccc(C)cc1	1.5	.	1	10
65	CCCSc1nc(C)c2cc(C)cc(C)c2n1	4.2	-6	6	3
66	O=C(CSc1nc2ccccc2c(=O)n1CCCN1CCOCC1)Nc1ccc2c(c1)OCO2	5.2	-13	-6	2
67	CC1CN(S(=O)(=O)c2ccc(NC(=O)CCN3C(=O)c4ccccc4C3=O)cc2)CC(C)O1 (stereo unspecified)	1.3	-37	-1	-3
68	CCC(=O)Nc1nnc(-c2ccco2)o1	3.9	-16	16	8
69	COc1cc(CC(=O)Nc2nc(-c3ccc(F)c(F)c3)cs2)cc(OC)c1OC	-20	-8	4	7
70	O=C(C[N+]12CCC(CC1)C(CO)C2)c1ccc(Br)cc1 (stereo unspecified)	2.1	-48	-10	8
71	COc1ccc2c(c1)CCc1c(C(=O)NCc3ccc(Cl)cc3)noc1-2	2.2	-24	-3	10
72	CNC(=S)N(C)N=C1C(=O)N(Cc2c(Cl)cccc2Cl)c2ccccc21	6.6	.	.	8
73	O=C1CC2(CCCCC2)Oc2ccc(OCC(=O)N3CCOCC3)cc21	2.3	-28	-17	8
74	CC(NC(=S)Nc1ccc(OC(F)F)cc1OC(F)F)C(C)(C)C (stereo unspecified)	1.1	-27	0	-11
75	CCC(C)(C)NC(=O)C(c1cccn1C)N(C(=O)Cn1nnc2ccccc21)c1ccccc1OC (stereo unspecified)	6.0	-18	-5	9
76	COc1ccc2oc(C(=O)NCc3cc(OC)c(OC)cc3OC)c(C)c2c1	0.5	-27	-11	-5

#	Mtb hypoxia rep growth	Bead autofluor	ugtP null kill
61	.	3500	.
62	5	4550	10
63	5	5397	4
64	3	9183	5
65	3	3798	24
66	3	2135	7
67	3	9908	-7
68	8	6277	0
69	-6	4172	40
70	10	3662	18
71	6	10169	-1
72	2	.	-4
73	5	8155	6
74	-8	2071	-18
75	1	2753	0
76	1	4432	4

Screening results (PubChem)
